Bioassay records (PubChem)
TRPV1 PAM = potentiators of human vanilloid receptor 1 (TRPV1); potentiation, % at 8.33 µM; hit rate 0.02% among 320,000; AID 540277; TRPV1-expressing cells, Fluo-8 calcium influx, capsaicin EC20 potentiation; host cell line not named in the record; control for the full effect not named in the record; Q8NER1; active means potentiation above 80%; inconclusive means 30% to 80%; inactive means below 30%; further: 0% is about no effect
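Fluo-8 calcium influx in TRPV1-expressing cells, kinetic read (ex 480/em 520 nm). Compound added and read 3 min for agonist activity, followed by capsaicin at EC20 final and 2 min further read for enhancement.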
TRPML1 agonist = human mucolipin-1 channel agonism; Q9GZU1; TRPML1-expressing cells, Ca2+ dye fluorescence, FDSS; host cell line not named in the record; reference of the full effect not given here; activation, % (test concentration not listed); hit rate 0.12% among 410,000; in the data active = activation above about 50%; inconclusive = about 30% to 50%; inactive = below about 30%; further: 0% is about no effect; the text of the record puts the active cut at 80%
Target sequence (Q9GZU1 whole entry, looked up): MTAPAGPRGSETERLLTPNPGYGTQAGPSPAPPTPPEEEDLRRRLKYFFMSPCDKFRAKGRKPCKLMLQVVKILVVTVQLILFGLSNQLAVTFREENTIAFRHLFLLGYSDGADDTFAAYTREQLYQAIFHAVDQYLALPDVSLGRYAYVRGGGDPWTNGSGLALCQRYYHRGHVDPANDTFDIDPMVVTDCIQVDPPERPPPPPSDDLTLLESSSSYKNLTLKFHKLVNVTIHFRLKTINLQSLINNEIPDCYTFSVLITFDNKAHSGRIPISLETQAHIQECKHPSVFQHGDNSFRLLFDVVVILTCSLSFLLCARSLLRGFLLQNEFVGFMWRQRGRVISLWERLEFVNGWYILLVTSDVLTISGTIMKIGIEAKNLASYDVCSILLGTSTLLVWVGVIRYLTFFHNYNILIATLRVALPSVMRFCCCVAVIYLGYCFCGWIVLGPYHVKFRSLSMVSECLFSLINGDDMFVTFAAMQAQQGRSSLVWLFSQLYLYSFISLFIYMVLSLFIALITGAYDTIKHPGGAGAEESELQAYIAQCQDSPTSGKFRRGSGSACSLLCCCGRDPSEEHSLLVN
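TRPML1-DL cells, Tet-induced overnight (~16 h, 37 degrees C), loaded 45-90 min at room temperature with Ca8 no-wash calcium dye plus quencher. FDSS fluorescence: 10 s baseline, compound pin-transfer, 110 s agonist read, then EC80 54-4 (4uM final) and 110 s antagonist read.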
Sfp PPTase inh = blocks B. subtilis Sfp PPTase activity; hit rate 3.5% among 310,000; Q9F4F7; Biochemical Sfp PPTase activity, qHTS; Potency, µM, for inactives: max response, negative = inhibition, hits mostly inhibitors; active means well fitted inhibition curve with a large enough effect; inconclusive means small, poorly fitted or top-dose-only effect, or another doubt; inactive means no such curve, though single readings can be large or run the other way;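 further: the enzyme is Sfp with the accession as filed and its product quenches rhodamine fluorescence; potency means the concentration at half of the fitted maximal effect; 0% = enzyme reaction without inhibitor and -100% = no enzyme wells; top concentration of the series not given in the record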
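Step 1, compound plus 15 nM Sfp-PPTase, 15 min, room temperature. Step 2, add rhodamine-CoA (5 uM) and BHQ-2-YbbR (12.5 uM). Step 3, read 525/598 nm fluorescence at 0 and 30 min.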
PINK1 expr mod = PINK1 expression modulation; Potency, µM (top dose mostly 76.6 µM), for the others: top-dose activation (PINK1 increase), usual class: activators; hit rate 0.2% among 410,000; PINK1 immunofluorescence, high-content cytometry, 24 h; AID 624263; active = well fitted activation curve with a large enough effect; inconclusive = small, poorly fitted or top-dose-only effect; inactive = flat fitted curve, though single readings scatter; cell line not stated here;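 further: potency means the concentration at half of the fitted maximal effect; % of control where 0% means no effect; nearly all actives have a fitted effect of over 65% in size; a mitochondrial uncoupler was the plate control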
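PINK1 protein level read as immunofluorescence by microplate cytometer in a fixed, stained stable cell line after 24 h exposure to five compound concentrations, with CCCP as control.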
ClpP mod = qHTS Assay for Activators of ClpP; purified B. subtilis ClpP, FRET peptide cleavage, 20 min; Potency, µM (doses to about 57.5 µM), for inactives: at the top dose activity change, negative = active; hit rate 1.9% among 340,000; AID 651965, 2013; active = well fitted falling curve with a large enough effect; inconclusive = small, poorly fitted or top-dose-only effect; inactive = no such curve, though single readings can be large or run the other way; further: potency means the concentration at half of the fitted maximal effect; the source files actives as falling curves though it sought activators and does not explain the sign; nearly all actives have a fitted effect of over 65% in size; many hits overshoot -100%
Target sequence (P80244 whole entry, looked up): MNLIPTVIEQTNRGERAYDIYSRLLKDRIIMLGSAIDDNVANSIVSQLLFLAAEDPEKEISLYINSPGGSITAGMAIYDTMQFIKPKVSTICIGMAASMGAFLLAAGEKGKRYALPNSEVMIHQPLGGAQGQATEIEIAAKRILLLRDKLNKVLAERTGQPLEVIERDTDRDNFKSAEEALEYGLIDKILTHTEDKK
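Purified B. subtilis ClpP, 10 microg/mL final in Tris/HCl pH8 with KCl, BSA, glycerol and Tween-20, cleaved an Abz/nitrotyrosine-quenched decapeptide. Fluorescence (ex 320, em 430) was read at 0 and 20 min at room temperature. Delta was normalized to 5.8 microM ADEP and DMSO/no-enzyme controls.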
TRPML1 inh = human mucolipin-1 channel inhibition | Q9GZU1 | TRPML1-inducible cells, Ca2+ dye fluorescence, FDSS; stronger effect = lower value; inhibition of EC80 agonist-evoked calcium signal | activity change, negative = inhibition, % (no concentration beside the values) | hit rate 0.02% among 390,000 | AID 624415; in the data active means activity change below about -50%; inconclusive means about -30% to -50%; inactive means above about -30%;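 further: stimulus is agonist 54-4 at its EC80 concentration; on the % scale 0 is the no-effect control and ±100 the full control effect; compound concentration not given in the record; the text of the record puts the active cut at -80%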
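Calcium fluorescence in TRPML1-DL cells induced overnight with Tet: a 110 s read after compound pin addition, then a 110 s antagonist read after challenge with 54-4 at 4 uM final (EC80).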
Menin MLL FP FL = displaces fluorescein MLL peptide from human menin; FP activity change, % at 61.4 µM; Fluorescence polarization, fluorescein-MLL peptide displacement from menin; 290,000 tested, under 10 active; AID 1766; inconclusive = falling polarisation curve, or a change in total fluorescence; inactive = total fluorescence flat and polarisation flat or rising; no compound was filed as active; the % refers to the polarisation; negative = inhibition;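 further: % of control where 0% means no effect; inhibitors lower the polarisation; unlabelled MLL peptide was the positive control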
Active calls of the source: *; & = joins results of further samples; [ ] = another dose, or the depositor's remark.

`COC(=O)[C@@H]1Cc2c([nH]c3ccccc23)C(C)(C)N1C(=O)CCl` gave TRPV1 PAM 5, TRPML1 agonist -0.8, Sfp PPTase inh 11%, PINK1 expr mod -1.2%, TRPML1 inh 12 and Menin MLL FP FL 2.7.
CCCOc1ccc(NC(=O)CNC(=O)c2cc(OC)cc(OC)c2)cc1OCCC was read as TRPV1 PAM 15, TRPML1 agonist 3.0, Sfp PPTase inh 14%, PINK1 expr mod 2.7%, ClpP mod -0.5%, TRPML1 inh 7 and Menin MLL FP FL -2.1.
CCC(=O)Nc1nnc(-c2ccc(OC)cc2)o1 was read as TRPV1 PAM 5, TRPML1 agonist 0.1, Sfp PPTase inh 9%, PINK1 expr mod 0.1%, ClpP mod -2.9%, TRPML1 inh -23 and Menin MLL FP FL -2.2.
For Cc1ccc(Oc2nc3c(c(=O)n(Cc4ccccc4Cl)c(=O)n3C)n2C)cc1C the results were TRPML1 agonist 0.1, PINK1 expr mod 1.6%, ClpP mod -0.9% and TRPML1 inh 9.
Cc1ccc(S(=O)(=O)N(CC(=O)Nc2cccc(N(C)S(C)(=O)=O)c2)c2ccc(Cl)c(Cl)c2)cc1 was read as TRPV1 PAM 11, TRPML1 agonist 1.9, Sfp PPTase inh 27%, ClpP mod -1.4%, TRPML1 inh -17 and Menin MLL FP FL -0.7.
For O=C(CSc1ncnc2sc3c(c12)CCCC3)c1ccco1 the results were TRPV1 PAM -13, TRPML1 agonist 2.4, Sfp PPTase inh inconclusive, PINK1 expr mod 3.6%, ClpP mod inconclusive, TRPML1 inh -6 and Menin MLL FP FL 4.1.
NS(=O)(=O)c1ccc(CNC(=S)NCc2ccc(F)cc2)cc1 was read as TRPV1 PAM -14, TRPML1 agonist 0.5, Sfp PPTase inh 8%, PINK1 expr mod -0.2%, ClpP mod -0.7%, TRPML1 inh 8 and Menin MLL FP FL 2.5.
For OCCN1CCN(c2ncnc3nc[nH]c23)CC1 the results were TRPV1 PAM -13, TRPML1 agonist 0.5, Sfp PPTase inh 23%, PINK1 expr mod -0.3%, ClpP mod 1.3%, TRPML1 inh -3 and Menin MLL FP FL 2.3.
For COc1ccc(S(=O)(=O)N(Cc2ccccc2)Cc2nc(-c3ccccc3)no2)cc1 the results were TRPV1 PAM 16, TRPML1 agonist 2.4, Sfp PPTase inh -2%, PINK1 expr mod 0.7%, ClpP mod 0.9%, TRPML1 inh 26 and Menin MLL FP FL 0.1.
`CN(C(=O)CCN1C(=O)c2ccccc2C1=O)C1CCCCC1` gave TRPV1 PAM 1, TRPML1 agonist 0.3, Sfp PPTase inh -3%, PINK1 expr mod 2.2%[38.3 µM], ClpP mod -1.1%, TRPML1 inh 7 and Menin MLL FP FL -1.3.
Screening CCC(=O)NC(=S)Nc1ccc(S(=O)(=O)NC(C)C)cc1 returned TRPV1 PAM inconclusive, TRPML1 agonist -0.6, Sfp PPTase inh 7%, PINK1 expr mod 2.3%[38.3 µM], ClpP mod -1.3%, TRPML1 inh -2 and Menin MLL FP FL -2.3.
`COc1ccc(/C=C/C(=O)NC(=S)NCCc2ccc(OC)c(OC)c2)cc1` gave TRPV1 PAM 13, TRPML1 agonist 2.2, Sfp PPTase inh 22%, PINK1 expr mod inconclusive, ClpP mod -0.6%, TRPML1 inh 5 and Menin MLL FP FL 1.1.
Screening O=CNc1ccccc1Oc1ccccc1 returned TRPV1 PAM 10, TRPML1 agonist -1.3, Sfp PPTase inh 15%, PINK1 expr mod -1.1%, ClpP mod 0.2%, TRPML1 inh -2 and Menin MLL FP FL 0.3.
Screening COc1ccc(NC(=O)/C(=C/c2cccnc2)NC(=O)c2cccs2)cc1 returned TRPV1 PAM -6, TRPML1 agonist 0.1, Sfp PPTase inh 12%, PINK1 expr mod -0.9%, ClpP mod -18%, TRPML1 inh -10 and Menin MLL FP FL 1.0.
`CCOC(=O)CSc1nnc(CCCCCN2C(=O)c3cccc4cccc(c34)C2=O)o1` gave TRPV1 PAM 23, TRPML1 agonist 2.6, Sfp PPTase inh -13%, PINK1 expr mod -0.3%, ClpP mod 3.5%, TRPML1 inh -6 and Menin MLL FP FL 7.0.
For CCOC(=O)Cc1csc(NC(=O)Nc2ccc(F)cc2)n1 the results were TRPV1 PAM 16, TRPML1 agonist -0.9, Sfp PPTase inh 12%, PINK1 expr mod 5.8%, ClpP mod -0.2%, TRPML1 inh 4 and Menin MLL FP FL -1.7.
`CCN(CC)c1ccc(-c2nn3c(-c4ccccc4OC)nnc3s2)cc1` gave TRPV1 PAM -4, TRPML1 agonist 0.3, Sfp PPTase inh inconclusive, PINK1 expr mod inconclusive, ClpP mod 7.9µM*, TRPML1 inh 22 and Menin MLL FP FL 3.2.
`COc1ccc(Cn2c(O)c(C=Nc3ccccc3C(=O)O)c3ccccc3c2=O)cc1` gave TRPV1 PAM -2, TRPML1 agonist 2.6, Sfp PPTase inh -26%, PINK1 expr mod -0.2%, TRPML1 inh 11 and Menin MLL FP FL 24.
Screening CC1(C)CC2CC(C)(CN2C(=O)c2cccs2)C1 (centres undefined) returned TRPV1 PAM 2, TRPML1 agonist -0.9, Sfp PPTase inh -7%, PINK1 expr mod -0.5%, ClpP mod 1.4%, TRPML1 inh -26 and Menin MLL FP FL 3.0.
For Nc1c(C(=O)CSc2nncn2-c2ccccc2)c(=O)[nH]c(=O)n1C1CC1 the results were TRPV1 PAM 4, TRPML1 agonist 0.1, PINK1 expr mod -1.2%, ClpP mod 1.0% and TRPML1 inh -6.
For COc1ccccc1C(=O)NCC(=O)OCC(=O)NNC(=O)c1ccc(Br)cc1 the results were TRPML1 agonist -0.3, PINK1 expr mod 1.3%, ClpP mod 1.6% and TRPML1 inh -5.
`CN1CCN(c2nc3ccccc3nc2C(C#N)S(=O)(=O)c2ccccc2)CC1` (centres undefined) gave TRPV1 PAM 19, TRPML1 agonist 0.8, Sfp PPTase inh 3%, PINK1 expr mod 0.1%, ClpP mod 0.9%, TRPML1 inh 16 and Menin MLL FP FL 0.2.
`CCOc1ccc(S(=O)(=O)c2cn(CC)c3ccc(F)cc3c2=O)cc1` gave TRPML1 agonist -0.2, PINK1 expr mod 0.9%, ClpP mod -3.4% and TRPML1 inh -6.
For COc1ccccc1CCC(=O)Nc1cccc(S(=O)(=O)N2CCCCCC2)c1 the results were TRPV1 PAM 9, TRPML1 agonist 0.3, PINK1 expr mod 2.8%, ClpP mod -2.7% and TRPML1 inh 13.
`Cc1cccc(OCC(=O)N2CCOCC2)c1` gave TRPV1 PAM 11, TRPML1 agonist -0.2, Sfp PPTase inh 3%, PINK1 expr mod -0.3%, ClpP mod 0.6%, TRPML1 inh -8 and Menin MLL FP FL 6.1.
Screening COc1cc(CNC(=O)Nc2nc(C(N)Cc3ccc(Cl)cc3)cs2)cc(OC)c1OC (centres undefined) returned TRPML1 agonist 0.9, PINK1 expr mod 0.3% and ClpP mod -0.4%.
`CC(C)C1(CCNC(=O)c2cccs2)CCOC(C)(C)C1` (centres undefined) gave TRPV1 PAM -33, Sfp PPTase inh 3%, PINK1 expr mod 2.5%, ClpP mod 1.3% and Menin MLL FP FL 1.4.
For CCOC(=O)CN1C(=O)C(O)(CC(=O)c2cc(OC)ccc2OC)c2ccccc21 (centres undefined) the results were TRPML1 agonist -0.5, PINK1 expr mod -0.1%, ClpP mod -6.6% and TRPML1 inh 1.
Screening O=C(NC1CCCCC1)C(c1ccc(F)cc1)N(C(=O)c1csnn1)C1CCCC1 (centres undefined) returned TRPV1 PAM -31, TRPML1 agonist 3.9, Sfp PPTase inh 15%, PINK1 expr mod 0.4%, TRPML1 inh -3 and Menin MLL FP FL 2.2.
For CCN(CC)CCCNC(=O)c1cc2nc3c(c(C(F)(F)F)n2n1)CCc1ccccc1-3 the results were TRPV1 PAM -2, TRPML1 agonist -0.6, Sfp PPTase inh 1%, PINK1 expr mod 1.2%, TRPML1 inh -7 and Menin MLL FP FL 1.5.
Screening CCCCC(=O)OCc1nc(N)nc(Nc2ccccc2C)n1 returned TRPV1 PAM 12, TRPML1 agonist 0.5, Sfp PPTase inh 0%, PINK1 expr mod 1.1%, ClpP mod -2.4%, TRPML1 inh 4 and Menin MLL FP FL 4.4.
O=C(CC1c2ccccc2Oc2ccccc21)N1CCN(c2ccccn2)CC1 was read as TRPV1 PAM 2, TRPML1 agonist 1.3, Sfp PPTase inh -24%, ClpP mod -26%, TRPML1 inh 0 and Menin MLL FP FL -2.4.
CC(C)(C)SCCNC(=O)CN(c1ccccc1)S(=O)(=O)c1ccc(F)cc1 was read as TRPV1 PAM -11, TRPML1 agonist -0.9, Sfp PPTase inh 12%, PINK1 expr mod 14%, TRPML1 inh 26 and Menin MLL FP FL -4.7.
CC1CCc2c(sc(NC(=O)c3ccc(-c4ccccc4[N+](=O)[O-])o3)c2C#N)C1 (centres undefined) was read as TRPV1 PAM -19, TRPML1 agonist 0.8, Sfp PPTase inh -1%, ClpP mod -0.2%, TRPML1 inh 0 and Menin MLL FP FL 3.0.
Screening CC(=O)Nc1ccc(NC(=O)CCSCCc2ccccn2)cc1 returned TRPV1 PAM 0, TRPML1 agonist -0.4&1.4, Sfp PPTase inh 9%, PINK1 expr mod 2.2%&1.0%, ClpP mod 0.5%, TRPML1 inh -11&-11 and Menin MLL FP FL -0.1.
Screening CCC1=NN2C(=N)/C(=C/c3ccc(OS(=O)(=O)c4ccccc4)cc3)C(=O)N=C2S1 returned TRPV1 PAM -4, TRPML1 agonist -0.7, Sfp PPTase inh -9%, PINK1 expr mod -0.7%, ClpP mod -7.5%, TRPML1 inh -20 and Menin MLL FP FL 14.
COc1ccc(C(NC(=O)C2C3C=CC(C3)C2C(=O)O)c2ccccc2)cc1 (centres undefined) was read as TRPV1 PAM -4, TRPML1 agonist 1.5, Sfp PPTase inh 11%, PINK1 expr mod 0.1%, TRPML1 inh -1 and Menin MLL FP FL -3.2.
NC(=O)CSc1nc2ccc([N+](=O)[O-])cc2[nH]1 was read as TRPV1 PAM 9, TRPML1 agonist -0.2, Sfp PPTase inh 15%, PINK1 expr mod 1.1%, ClpP mod 1.0%, TRPML1 inh -3 and Menin MLL FP FL -1.7.
